From PubChem BioAssay
PKD1 kinase inh: inhibitors of human PKD1 kinase; PKD1 kinase fluorescence polarization assay; inhibition, %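 (about 10 µM by stock and volumes)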; hit rate 0.056% among 200,000; AID 797;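 active = inhibition of 50% or more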;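 note: controls were vehicle for no effect and a reference inhibitor for full effect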
HSV replic up: HSV replication enhancement. HSV replication augmentation in cells, fold increase. maximum fold increase. hit rate 0.005% among 220,000. AID 1956;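 active = peak rise of 1.5-fold or more in the series; tested in PC3 cells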;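 note: first round at 10 µM; read as green reporter fluorescence; hits show the peak of a series up to 25 µM; 1 = signal of infected wells without compound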
GALR2 agonist: activates the human galanin receptor 2. GALR2-expressing cells, agonist activation read-out. hit rate 0.48% among 140,000. activation, %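 (tested at 5 µM)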. O43603;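 active = above mean plus 3 SD of all compounds, about 5% in these data, not always enough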;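 note: 0% = vehicle buffer wells and 100% = reference agonist at full effect; tested in CHO reporter cells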
Target sequence (O43603 whole entry, looked up): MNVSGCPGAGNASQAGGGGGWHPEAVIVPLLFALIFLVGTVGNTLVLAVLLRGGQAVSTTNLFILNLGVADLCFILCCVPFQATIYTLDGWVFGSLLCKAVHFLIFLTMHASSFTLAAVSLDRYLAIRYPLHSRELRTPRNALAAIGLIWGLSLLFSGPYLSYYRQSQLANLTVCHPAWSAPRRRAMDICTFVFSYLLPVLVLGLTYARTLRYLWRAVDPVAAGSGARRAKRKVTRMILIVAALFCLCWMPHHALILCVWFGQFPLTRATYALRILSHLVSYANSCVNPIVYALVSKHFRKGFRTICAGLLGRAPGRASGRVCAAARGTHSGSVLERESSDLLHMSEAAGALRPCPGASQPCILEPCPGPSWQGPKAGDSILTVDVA
RGS16-Gao: RGS16-Galphao interaction regulator (human) | hit rate 0.38% among 220,000 | bead-based flow cytometry RGS16-Galphao binding, fluorescence; actives lie on both sides | AID 1441 | binding response (% of control), % at 10 µM;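 active = below 25% or above 175%, edge rows of some plates excepted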;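 note: Galphao activated by GDP with aluminum fluoride before binding; 100% = wells without compound and 0% = beads without RGS; some results beyond the cut were filed as inactive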
Target sequence (O15492 whole entry, looked up): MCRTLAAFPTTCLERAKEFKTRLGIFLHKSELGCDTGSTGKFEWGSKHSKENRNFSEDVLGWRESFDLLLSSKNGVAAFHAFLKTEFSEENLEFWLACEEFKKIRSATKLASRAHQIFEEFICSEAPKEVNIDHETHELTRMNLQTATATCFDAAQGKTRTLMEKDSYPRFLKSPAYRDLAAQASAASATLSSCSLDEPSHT
Target sequence (P09471 whole entry, looked up): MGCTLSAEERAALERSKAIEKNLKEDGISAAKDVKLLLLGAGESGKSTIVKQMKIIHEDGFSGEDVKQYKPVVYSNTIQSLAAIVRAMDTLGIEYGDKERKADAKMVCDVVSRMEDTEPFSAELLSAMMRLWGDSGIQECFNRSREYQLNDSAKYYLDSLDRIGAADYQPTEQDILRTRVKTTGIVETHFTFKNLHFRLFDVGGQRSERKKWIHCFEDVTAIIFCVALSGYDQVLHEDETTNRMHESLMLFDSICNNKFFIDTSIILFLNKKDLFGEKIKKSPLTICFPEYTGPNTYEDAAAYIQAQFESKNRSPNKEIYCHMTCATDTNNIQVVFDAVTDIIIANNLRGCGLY
INS promoter inh: TRM-6 insulin promoter activity inhibition; TRM-6 cells (human fetal islet line), insulin promoter-eGFP reporter, imaging; reporter expression induced with tamoxifen; inhibition, % at 2 µM; hit rate 0.9% among 130,000; AID 1273;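 active = inhibition above the mean plus 3 SD, with well images judged a real hit on visual review, cut at about 60% in these data, passing the limit was not always enough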
INS promoter inh cell count: further read-out of INS promoter inh, marked with its call; normalized cell count, %; measured here: cell count, toxicity; reference of the scale not given here;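 cells exposed to compound for 48 h; stained nuclei by imaging scaled within each plate; lower means fewer cells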
HSV replic up primary fold: recorded beside HSV replic up, whose call it bears; fold increase; compound at 10 µM; measured here: primary screen fold increase 10 uM; tested in PC3 cells;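 GFP signal in the first replicate; 1 = infected wells without compound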
* marks the source's active call; other numbers are inactive results; i = inactive; · = no result given.

SMILES	PKD1 kinase inh	HSV replic up	HSV replic up primary fold	GALR2 agonist	RGS16-Gao	INS promoter inh	INS promoter inh cell count
CC(=O)CSc1nnc(C(F)(F)F)n1C	·	i	1.1	·	96	·	·
C=C1CCN([C@H](C(=O)OCc2cccc(C)c2)C(C)C)S(=O)(=O)c2ccccc21	·	i	0.97	·	90	·	·
Cc1nn(Cc2c(Cl)cccc2Cl)c(C)c1N	-16	i	0.88	-0.5	110	-26	138
CCn1c(-c2ccc3[nH]c(C)c(C)c3c2)n[nH]c1=S	5	i	1.1	0.0	101	·	·
CC(=O)C1C(=O)CC(C)(O)C(C(C)=O)C1c1ccc(N(C)C)cc1 (centres undefined)	9	i	0.82	-1.7	100	14	135
O=C(O)CCc1ccc(-c2ccc(F)cc2)n1NC(=O)c1ccco1	-2	i	1	-0.4	93	-14	66
C/C(=N\N=C(N)N)c1ccc(Cl)c(Cl)c1	0	i	0.59	·	94	35	75
CC1CN(c2ncc(/C=N/NC(=O)c3ccccc3O)s2)CC(C)O1 (centres undefined)	5	i	0.86	·	100	·	·
CC1(C)CC(=O)C(N=Nc2ccc3ncsc3c2)=C(O)C1	-5	i	0.84	-2.0	98	-92	88
CCCNc1nc(C)nc2c1cnn2CCc1ccccc1	-1	i	0.96	-0.1	104	46	93
CC(=O)N(Cc1cc(=O)[nH]c2ccccc12)c1ccccc1	2	i	0.9	-1.9	103	27	101
Oc1nc(Nc2ccc(F)cc2)sc1/C=C1\C=Nc2ccccc21	·	i	1.1	·	92	·	·
COc1ccc(OC)c(NC2c3ccccc3C(=O)N2Cc2ccc3c(c2)OCO3)c1 (centres undefined)	2	i	0.98	-0.4	96	·	·
CCCc1nc2ccccc2c(=O)n1/N=C/c1ccc(O)cc1	-23	i	0.97	-0.8	99	29	94
CCC(C)n1c(=N)c(C#N)cc2c(=O)n3cc(C)ccc3nc21 (centres undefined)	-6	i	1	·	117	0	158
CCOC(=O)c1cc(C)n(-c2ccc(Cl)cc2)c1C	·	i	1.2	·	94	·	·
COc1ccccc1CC(=O)Nc1ccc(OC)c(OC)c1	-5	i	1.1	-1.3	100	-21	153
CCOc1ccc(NC(=O)CN(c2ccc(OC)cc2)S(C)(=O)=O)cc1	-1	i	1	-0.7	120	-24	78
COC(=O)C1C(=O)c2c([nH]c(C(=O)OC3CCCC3C)c2C)CC1C (centres undefined)	-5	i	0.9	-1.0	102	·	·
Cc1nn(-c2ccccc2)c2sc(C(=O)c3c(N)n(C)c(=O)n(C)c3=O)cc12	-2	i	0.85	0.7	99	·	·
COc1ccc(S(=O)(=O)N2CCCC(C(=O)Nc3ccc(NC(=O)c4ccccn4)cc3)C2)cc1 (centres undefined)	2	i	1.3	0.1	101	·	·
CN(c1ccc(C(=O)NCCSCc2ccccc2)cc1)S(=O)(=O)c1ccccc1	-4	i	1	-3.9	99	-17	75
O=C(CSc1nnnn1C1CCCC1)NCc1ccccc1	-3	i	1.1	-0.5	103	-54	103
CCn1c2ccccc2c2cc(NC(=O)CNCC3CCCO3)ccc21 (centres undefined)	-12	i	0.87	·	102	·	·
Cc1cc(=O)[nH]c(SCC(=O)Nc2ncc(S(=O)(=O)c3ccc([N+](=O)[O-])cc3)s2)n1	-3	i	0.99	·	103	·	·
O=C1c2ccccc2C(=O)N1CCCCN(C(=O)c1cc2ccccc2oc1=O)c1ccc(F)cc1F	12	i	0.96	-0.2	108	13	152
O=Cc1cn(-c2ccccc2)nc1-c1cc2ccccc2oc1=O	4	i	0.98	-3.5	89	-23	139
O=C(Cn1cnc2scc(-c3ccccc3)c2c1=O)N1CCOCC1	-2	i	0.91	-1.9	89	-341	75
CCc1c(C(C)=O)oc2ccc3c(C)cc(=O)oc3c12	·	i	0.94	·	102	·	·
Cc1cc(OCc2nc(-c3cccnc3)no2)c(C)cc1Br	-5	i	1.1	-1.2	105	71	102
Cc1ccc(C(=O)COc2ccccc2C(=O)Nc2ccccc2)cc1	-10	i	1.1	-1.7	101	·	·
Cc1ccc(C)c(-n2ccnc2SCC(=O)O)c1	-8	i	0.97	-3.5	101	-14	107
C#CCOCCOCCOCCNc1nc(N2CCN(C(=O)[C@H]([C@@H](C)CC)n3cc(CCCCN)nn3)CC2)nc(N2CCN(C(=O)[C@H](C)n3cc(CCC(=O)O)nn3)CC2)n1	-10	i	0.85	-1.1	73	10	99
CSCCC(N=C(NS(=O)(=O)c1ccccc1)c1ccccc1)C(=O)O (centres undefined)	·	i	1.2	·	103	·	·
COc1nnc(-c2ccccc2)s1	7	i	1	-0.9	102	-43	123
Cc1cc(OCC(=O)O)c2cccc(C)c2n1	-6	i	0.98	1.0	97	·	·
COc1cc(NC(=S)N2CCC(C(N)=O)CC2)c(OC)cc1Cl	-7	i	1	·	95	5	135
CN1CCN(S(=O)(=O)c2cccc(C(=O)Nc3sc4c(c3-c3nc5ccccc5[nH]3)CCCC4)c2)CC1	-14	i	0.87	0.7	100	-20	100
Cc1[nH]nc2c1C(c1ccc(O)cc1)C1=C(CC(C)(C)CC1=O)N2 (centres undefined)	-5	i	1	·	102	·	·
Cc1ccc(C(=O)CC(C(=O)O)n2ccc(C)n2)cc1 (centres undefined)	-6	i	0.92	0.6	97	24	140
COc1ccc(S(=O)(=O)Nc2ccccc2C)cc1	-6	i	0.89	-0.6	104	-4	115
COc1ccc(C2CCCN2C(=S)Nc2c(C)cccc2C)cc1OC (centres undefined)	0	i	0.98	·	94	·	·
Cc1ccc(NCCCCO)cc1C	6	i	1.1	·	106	33	84
O=C(Nc1ccc(Cl)c(Cl)c1)Nc1cc(S(=O)(=O)N2CCOCC2)ccc1N1CCCC1	-11	i	1.1	-1.0	96	29	131
CCc1cc(Br)ccc1NC(=O)C1CCCO1 (centres undefined)	-7	i	0.92	-1.7	104	56	123
COc1ccc(-c2[nH]ncc2CN(C)CCCN2CCOCC2)cc1F	-6	i	1.1	·	99	·	·
COc1cc(/C=C/C(=O)Oc2coc(CSc3ncccn3)cc2=O)cc(OC)c1OC	-5	i	0.82	·	101	-67	102
CC1CCCCN1C(=O)CCS(=O)(=O)c1cccc2nonc12 (centres undefined)	-7	i	1	·	108	-33	104
O=S1(=O)CCC(NC(=S)N2CCOCC2)C1 (centres undefined)	0	i	1.1	-0.8	109	·	·
Nc1nc(N2CCN(c3ccc(Cl)cc3)CC2)n[nH]1	-8	i	0.99	·	100	-3	106
C/C(=N\NC(=O)Cc1ccc(F)cc1)c1ccc(F)cc1	11	i	1.1	0.1	100	·	·
CCCCCCCN1C2=NCCN2c2ccccc21	·	i	0.88	·	98	·	·
CCOc1ccc(S(=O)(=O)n2nnc3ccccc32)cc1C	-6	i	0.95	-0.7	99	-25	144
N=C(N)SCc1cn2ccccc2n1	11	i	0.93	0.5	94	45	139
NC(=O)c1ccccc1NC(=O)CN1CCOCC1	-10	i	0.7	-1.3	102	31	51
CCOC(=O)Cc1csc(NC(=S)NC(=O)c2cc(OC)cc(OC)c2)n1	-5	i	0.98	·	103	·	·
CSc1nsc(N/N=C/c2ccc3c(c2)OCO3)c1C#N	1	i	1	·	65	25	93
Cc1ccsc1C(=O)OCC(=O)Nc1c(C)n(C)n(-c2ccccc2)c1=O	0	i	0.9	0.2	110	-23	136
CCOC(=O)CC(C(=O)OCC)P(=O)(c1ccccc1)c1ccccc1 (centres undefined)	-2	i	0.95	-1.9	109	7	106
CN(CC(=O)Nc1ccc([N+](=O)[O-])cc1Br)Cc1c(F)cccc1Cl	·	i	1.1	·	95	·	·

An excerpt from above, showing only GALR2 agonist, RGS16-Gao and HSV replic up primary fold.
Structure | GALR2 agonist | RGS16-Gao | HSV replic up primary fold
NC(=O)c1ccccc1NC(=O)CN1CCOCC1 | -1.3 | 102 | 0.7
Nc1nc(N2CCN(c3ccc(Cl)cc3)CC2)n[nH]1 | · | 100 | 0.99
COc1cc(/C=C/C(=O)Oc2coc(CSc3ncccn3)cc2=O)cc(OC)c1OC | · | 101 | 0.82
CCOC(=O)CC(C(=O)OCC)P(=O)(c1ccccc1)c1ccccc1 (centres undefined) | -1.9 | 109 | 0.95
Cc1ccsc1C(=O)OCC(=O)Nc1c(C)n(C)n(-c2ccccc2)c1=O | 0.2 | 110 | 0.9

Sorted by molecular weight (descending): some entries from above.
SMILES	PKD1 kinase inh	HSV replic up	HSV replic up primary fold	GALR2 agonist	RGS16-Gao	INS promoter inh	INS promoter inh cell count
CN(CC(=O)Nc1ccc([N+](=O)[O-])cc1Br)Cc1c(F)cccc1Cl	·	i	1.1	·	95	·	·
COc1ccc(-c2[nH]ncc2CN(C)CCCN2CCOCC2)cc1F	-6	i	1.1	·	99	·	·
Nc1nc(N2CCN(c3ccc(Cl)cc3)CC2)n[nH]1	-8	i	0.99	·	100	-3	106

(cont.)
SMILES	PKD1 kinase inh	HSV replic up	HSV replic up primary fold	GALR2 agonist	RGS16-Gao	INS promoter inh	INS promoter inh cell count
CCCCN(C)C1CCN(C(=S)Nc2cccc(OC)c2)CC1	1	i	0.95	·	98	·	·
O=C(c1c(Cl)cccc1Cl)N1CCN(c2cccc3[nH]ccc23)CC1	·	i	0.76	·	98	·	·
CC1CCN(C(C)C(=O)Nc2ccccc2-c2ccccc2)CC1 (centres undefined)	-1	i	1.1	0.9	105	-17	103
COc1cccc(/C=N/NC(=O)C(=O)Nc2ccccc2OC(F)(F)C(F)F)c1O	-9	i	0.79	-1.8	94	34	77
O=C(NC(Cc1ccccc1)c1nc2ccccc2[nH]1)c1cccc([N+](=O)[O-])c1 (centres undefined)	·	i	0.95	·	100	·	·
Cc1ccc(N=Nc2c(=O)[nH]n3c(C)cc(C)nc23)cc1	1	i	0.96	-1.2	108	-20	136
COc1ccc(Cl)cc1-c1nc(SCC(N)=O)n[nH]1	·	i	0.88	·	100	·	·
O=C(N/C(=C\c1ccc([N+](=O)[O-])cc1)C(=O)N1CCCCC1)c1ccccc1Br	-2	i	0.98	0.6	103	-8	120
COc1ccc2cc(C(=O)OC(C)C)sc(=O)c2c1OC	-7	i	0.83	-0.4	107	71*	48*
COc1ccc(C2(C(=O)N3CCCC3)CCOCC2)cc1OC	-8	i	0.9	-1.4	98	·	·
COc1ccc(N2CC(O)=C(c3nc(-c4ccc(F)cc4)cs3)C2=N)cc1Cl	2	i	0.9	·	97	·	·
COC(=O)c1sc(NC(=O)C2c3ccccc3Oc3ccccc32)c(C(=O)OC)c1C	-7	i	0.98	-1.3	108	·	·
Cc1[nH]c2ccccc2c1C(=O)C(=O)N1CC=C(c2ccccc2)CC1	2	·	·	0.6	98	·	·
Cc1ccc(SCCNC(=O)/C=C/c2ccc(Cl)cc2)cc1	0	i	0.94	-1.5	113	47	109
NNC(=O)c1snnc1-c1ccccc1	·	i	1.1	·	108	·	·
CCn1c(CNC(=O)c2ccccc2F)nnc1SCC(=O)NC1CCCCC1	-3	i	0.97	·	100	·	·
O=S(=O)(/C=C/c1ccccc1)NC1CCCCCC1	0	i	1.1	·	105	39	86
CC(C)c1ccc(NC(=O)C[n+]2ccn(C3=C([O-])c4ccccc4C3=O)c2)cc1	3	i	0.88	·	101	·	·
CCOC(=O)C1CCN(C(=O)c2ccccc2NS(=O)(=O)c2ccc(F)cc2)CC1	-2	i	0.92	-0.9	116	47	96
N#CC(C#N)=C1C=CC=CN1/C(=C\c1ccco1)C(=O)c1ccc(Br)cc1	-14	i	0.86	0.0	97	-220	12
O=C1CCCN1CCC1CCN(C(=O)Nc2ccccc2)CC1	-6	i	0.93	-0.2	96	14	181
COc1cc(-c2nc3ccc4ccccc4c3c3c2CCC3)cc(OC)c1O	0	i	0.78	-1.1	100	12	188
O=C(CC1S/C(=N/N=C/c2cccs2)NC1=O)Nc1ccc(Cl)c(Cl)c1 (centres undefined)	5	i	0.76	-0.2	94	·	·
CCCCNC(=O)C(=O)NCc1ccncc1	·	i	0.86	·	101	·	·
O=C(Cn1cnc2c(cnn2-c2ccccc2)c1=O)Nc1cc(S(=O)(=O)N2CCOCC2)ccc1Cl	-3	i	0.65	0.3	103	·	·
CCCCCCCCCCn1ccc(=N)cc1	·	i	0.54	·	102	·	·
C[C@@H]1C[C@@H]2OC(=O)[C@]3(C)[C@H]2[C@@H](OC3(C)O)[C@]2(C)C(=O)C=C[C@H]12 (some centres undefined)	·	i	0.69	·	101	·	·
COc1cccc(-n2cc(CNCc3c(C(=O)N(C)C)nc4ccc(Cl)cn34)cn2)c1	3	i	1.2	·	96	·	·
CCOc1ccc(NC(=S)NNc2ccnc3cc(Cl)ccc23)cc1	1	i	0.94	·	100	·	·
O=C(N1CCCCC1)N1CCN(S(=O)(=O)c2ccc(Cl)cc2)CC1	-6	i	0.88	·	113	-62	130
COc1ccc(NC(=O)c2csc3c2CCCC3)cc1	-7	i	1.2	0.1	104	-36	97
